High-throughput results as filed in PubChem.
HIV Env fusion = inhibitors of HIV-1 Env-driven cell-cell fusion, primary screen, HeLa-JRFL effector, CEM21 target cells, luciferase; inhibition, % at 12.3 µM; hit rate 1.1% among 360,000; AID 651610, 2012;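 active = mean replicate inhibition score of at least 50 and every replicate individually at or above 50; inconclusive = only one of the two criteria met; inactive = mean below 50 and not all replicates reaching 50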;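 also: 0% = plate neutral controls and 100% = maraviroc near 300 nM; one replicate is shown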
Rce1 inhib = yeast Rce1p protease inhibitors, primary screen, biochemical, fluorescence, cell-free homogeneous; AID 2563, 2010; calls only; hit rate 0.27% among 290,000; yeast membranes, quenched prenylated peptide cleavage fluorescence; CAAX prenyl protease 2 (Saccharomyces cerevisiae (strain ATCC 204508 / S288c)), Q03530;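 active = fall in fluorescence gain of 50% or more versus controls, with final raw signal at or below 3038400; inconclusive = same 50% fall but final raw signal above 3038400; inactive = fall in fluorescence gain under 50%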;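 also: plate controls were neutral control wells for no effect and wells lacking membranes for full effect; tested at 10 µM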
Target sequence (Q03530 whole entry, looked up): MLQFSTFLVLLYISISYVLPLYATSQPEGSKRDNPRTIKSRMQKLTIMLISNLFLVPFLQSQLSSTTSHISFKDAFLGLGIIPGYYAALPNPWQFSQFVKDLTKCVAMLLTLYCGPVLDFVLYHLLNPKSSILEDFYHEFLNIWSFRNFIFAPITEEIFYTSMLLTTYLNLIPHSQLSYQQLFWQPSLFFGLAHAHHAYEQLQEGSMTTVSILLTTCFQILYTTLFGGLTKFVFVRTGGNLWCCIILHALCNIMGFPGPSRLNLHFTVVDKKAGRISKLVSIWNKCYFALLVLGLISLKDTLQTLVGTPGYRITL
Yeast UUG start = modulators of yeast start codon fidelity, primary screen, whole organism, S. cerevisiae, single point, plate reader | activity score, % at 18.7 µM | AID 602363, 2012 | S. cerevisiae UUG-firefly luciferase reporter, luminescence/redox ratio | hit rate 0.13% among 350,000;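 active = replicate mean at a twofold rise or more, about +100% in these data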;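 also: firefly luciferase made from a UUG start codon reports start codon fidelity; reporter light over untreated wells divided by growth signal over untreated wells; some hits fall short of that in this replicate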
MT1-MMP act inh = blockers of MT1-MMP proenzyme processing, primary screen, HT1080 RFP-PRO-GFP cells, GFP/RFP fluorescence; GFP/RFP ratio fluorescence, overnight; percent of plate control window, DMSO zero; Matrix metalloproteinase-14 (Homo sapiens), P50281; AID 651647, 2012; GFP/RFP ratio change, % at 20 µM; hit rate 0.061% among 360,000;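 active = GFP/RFP ratio change of at least 30% with cell ATP level not reduced by more than half and red fluorescence within 50% of control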; also: strong numbers were not always called active
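Test system: HT1080 RFP-PRO-GFP cells; Benchmarks: DMSO and RFP-L50D-GFP cell wells; Timing: cells overnight before dosing, compound overnight, 37 °C, 5% CO2; Compound: one 20 µM compound dose with 1% DMSO; Read-out: GFP/RFP fluorescence ratio.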
PABP FP inh = PABP poly(A) RNA binding inhibitors, primary screen, biochemical, fluorescence polarization, uHTS | Polyadenylate-binding protein 1 (Homo sapiens), P11940 | inhibition, % at 35 µM | hit rate 1% among 290,000;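 active = 50% or more with normal probe brightness, or confirmed in later tests; inconclusive = above 50% with abnormal brightness, or retests that disagree; inactive = below 50% or failed in later tests; about a fifth of its hits are not listed in these tables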;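 also: calls also rest on retests at 20 µM and on dose response follow-up; controls were probe without protein and protein plus probe with vehicle; some compounds called inactive have numbers as strong as hits; many hits fall short of the cut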
eIF4H inh = human eIF4H binding inhibitors, primary screen, translation initiation inhibitor project, biochemical, uHTS, fluorescence polarization | Eukaryotic translation initiation factor 4H (Homo sapiens), Q15056 | eIF4H fluorescence polarization binding assay | inhibition, % at 35 µM | hit rate 0.94% among 290,000;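 active = 50% or more with normal probe brightness, or confirmed in later tests; inconclusive = above 50% with abnormal brightness, or retests that disagree; inactive = below 50% or failed in later tests; about a fifth of its hits are not listed in these tables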;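 also: calls also rest on retests at 20 µM and on dose response follow-up; 0% = protein and probe with vehicle and 100% = probe without protein; strong numbers were not always called active; many hits fall short of the cut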
CSC inhib = cancer stem cell viability inhibitors, primary screen, luminescence; cancer stem cell-like cells viability; hit rate 1.1% among 300,000; inhibition, % at 7.5 µM; AID 2717, 2010;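 active = mean at 75% or more and at least half the replicates too; inconclusive = mean and replicates disagree; tested in HMLE shEcad cells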;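 also: 0% = median of negative and 100% = median of positive control wells; the first replicate is given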
eIF4H inh retest = recorded beside eIF4H inh, whose call it bears; inhibition, %; compound at 20 µM; confirmation average;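 mean of two retest wells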
PABP FP inh retest = recorded beside PABP FP inh, whose call it bears; inhibition, %; compound at 20 µM; confirmation repeats;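 mean of two retest wells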
MT1-MMP act inh RFP = second read-out of MT1-MMP act inh, no call of its own (marks repeat the call); RFP signal change, %; measured here: RFP expression control read;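 0 = vehicle wells; hits needed this value within 50% of zero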
Active calls of the source: *; i = inactive; ? = inconclusive; · = no result given; + = active, no number. A portion of the library. The share of hits here may be higher or lower than overall.

SMILES	HIV Env fusion	Rce1 inhib	Yeast UUG start	MT1-MMP act inh	MT1-MMP act inh RFP	PABP FP inh	eIF4H inh	CSC inhib	others
COc1ccc(OC/C(O)=C(\C#N)c2nc3ccccc3[nH]2)cc1	·	i	-4	1	-4	-7	-6	6
COC(=O)c1ccccc1NC1c2ccccc2C(=O)N1c1cccnc1 (stereo not drawn)	-17	i	-13	1	4	-16	-13	·
O=C(NC1CC2CCCC(C1)N2C(=O)Nc1ccccc1)c1ccccc1 (stereo not drawn)	1	i	-22	2	-3	-2	1	26
CC(=O)c1ccc(OC(C)C(=O)NCC2(N3CCOCC3)CCCCC2)cc1 (stereo not drawn)	19	·	-10	-2	-1	·	·	-17
c1ccc(-c2nc(N3CCCCCC3)c3ccccc3n2)nc1	·	i	-35	-2	-13	-5	8	-4
N/C(=N\NC(=O)c1ccccc1Cl)c1cc2ccccc2oc1=O	2	i	·	-3	3	-3	2	-16
CCOc1ccc2nc(SCC(=O)NCc3ccc(S(N)(=O)=O)cc3)[nH]c2c1	7	i	-20	3	-5	14	6	-13
COc1ccc(C(C(N)=O)c2ncc(C(F)(F)F)cc2Cl)cc1OC (stereo not drawn)	-8	i	-12	-1	3	0	10	-1
CSc1nsc(/C=C/Nc2ccc(C(=O)O)cc2)c1C#N	-28	i	·	-37	10	3	28	15
COc1ccc(C2NC(=O)NC3=C2C(=O)CCC3)cc1 (stereo not drawn)	-4	i	-5	2	2	5	-6	-16
COc1cccc(OC)c1C(=O)NC(=O)Nc1c(F)cc(F)cc1F	0	i	-15	3	4	-4	-4	-9
Cc1csc(=O)n1CC(=O)OCC(=O)Nc1cc([N+](=O)[O-])ccc1Cl	-44	i	-11	6	2	·	·	-14
Cc1ccccc1NC(=O)C(C)OC(=O)c1ccccc1C(=O)N(C)c1ccccc1 (stereo not drawn)	2	i	-3	-1	1	·	·	·
CN(C)/C=C(/C(=O)c1ccccc1Cl)S(=O)(=O)c1ccccc1	11	i	3	-12	0	·	·	22
Cc1ccc(C(=O)NCC(=O)OCC(=O)c2c(N)n(C)c(=O)n(C)c2=O)cc1C	-6	·	-3	0	0	·	·	-21
NS(=O)(=O)c1ccc(NC(=O)c2ccc3c(c2)CCN3S(=O)(=O)c2ccccc2)cc1	0	i	-25	1	-7	0	-9	-1
COc1cc(S(=O)(=O)NC2CCCCC2C)ccc1Cl (stereo not drawn)	·	·	-4	2	0	-8	-5	-14
CCCCN(CC)C(=O)Cn1ncc2c3ccccc3n(CCC)c2c1=O	22	i	6	1	1	-9	-4	4
CC(O)(c1ccccc1)c1nc(-c2cccc(C(=O)O)c2)cs1 (stereo not drawn)	-32	·	-5	1	2	·	·	·
O=C1CSC(c2ccccc2O)N1Cc1ccccc1 (stereo not drawn)	5	i	6	3	0	-3	3	-5
O=C(NCc1cccnc1)c1cc(C2CCCN(S(=O)(=O)c3ccccc3)C2)on1 (stereo not drawn)	-6	·	-6	-3	-7	·	·	·
Cc1sc(N2CCN(S(=O)(=O)c3ccc4c(c3)NC(=O)CO4)CC2)nc1-c1ccccc1	-17	i	-10	4	-10	10	3	-6
CCOC(=O)C1C(c2ccc(OC)c(OC)c2)c2c([nH][nH]c2=O)CC1(C)O (stereo not drawn)	16	i	·	4	6	5	-2	-9
Cc1ccc(CNC(=O)C2CCN(S(=O)(=O)N3CCC4(CC3)OCCO4)CC2)cc1	15	i	·	-3	2	4	-12	·
COc1ccc(C(=O)/C=C2/Sc3cc4c(cc3N2C)OCO4)cc1	-9	i	·	8	6	-6	7	16
O=C(Cn1cnc2ccccc2c1=O)NCCC(=O)Nc1ccc2c(c1)OCO2	4	i	·	3	1	1	5	-10
CCOC(=O)Cn1nnc(-c2cc(OC)c(OC)c(OC)c2)n1	5	i	42	7	4	2	-7	-11
NNC(=O)CSc1cccc2cccnc12	14	i	·	4	6	4	6	-11
CCCCN1CCNC[C@@H]1Cc1ccccc1	26	i	-12	0	2	·	·	11
CN(Cc1nc2ccccc2n1C)S(=O)(=O)c1ccc(F)cc1	·	·	-6	4	0	-4	-1	2
COc1ccc(-c2nnn(CC(=O)N(CC(=O)NC3CCCC3)c3ccccc3F)n2)cc1OC	7	i	-1	0	2	2	-5	-20
COc1ccc(Nc2nc(C)cc(=O)[nH]2)c(OC)c1	·	i	-13	-1	5	8	-10	-14
CN1C(=O)C2C3c4ccccc4C(c4ccccc43)[C@@H]2C1=O (stereo partly drawn)	6	i	-16	-3	0	7	-14	-5
COc1cc(/C=N/NS(=O)(=O)c2ccc(C)c([N+](=O)[O-])c2)ccc1O	16	i	·	3	0	7	0	13
COc1ccc(Cl)cc1N1C(=O)CC(Sc2ccccc2N)C1=O (stereo not drawn)	9	i	-11	3	-1	-8	-8	-1
CCC(/C=N/NC(=O)C(=O)N/N=C/C(CC)CC)CC	3	i	-21	1	3	-11	-5	14
CCCOc1ccccc1/C=C(\C#N)C(=O)Nc1cccnc1	-15	i	·	0	1	7	-4	-4
CC(C)NC(=O)c1onc(CSc2cccc3ccccc23)c1C(=O)O	1	i	1	4	12	3	-14	34
Cc1nc2c(N=Nc3ccccc3F)c(N)nn2c(N)c1C#N	3	i	·	4	-7	7	-8	2
COCCN(C(=O)COC(=O)/C(=C/c1ccccc1)NC(C)=O)c1c(N)n(Cc2ccccc2)c(=O)[nH]c1=O	-1	i	-13	-3	2	3	3	8

Overlap with the part before: four entries, then new ones.
SMILES	HIV Env fusion	Rce1 inhib	Yeast UUG start	MT1-MMP act inh	MT1-MMP act inh RFP	PABP FP inh	eIF4H inh	CSC inhib	others
CCCOc1ccccc1/C=C(\C#N)C(=O)Nc1cccnc1	-15	i	·	0	1	7	-4	-4
CC(C)NC(=O)c1onc(CSc2cccc3ccccc23)c1C(=O)O	1	i	1	4	12	3	-14	34
Cc1nc2c(N=Nc3ccccc3F)c(N)nn2c(N)c1C#N	3	i	·	4	-7	7	-8	2
COCCN(C(=O)COC(=O)/C(=C/c1ccccc1)NC(C)=O)c1c(N)n(Cc2ccccc2)c(=O)[nH]c1=O	-1	i	-13	-3	2	3	3	8
Cc1ccccc1C(=O)N1CCN(c2ccc(NC(=O)c3ccc4c(c3)OCO4)cc2)CC1	23	i	·	-7	-23	4	1	77*
CN(C)C(=O)c1ccc(Nc2ncnc3sc4c(c23)CCCCC4)cc1	7	i	-12	1	1	6	6	-7
CC1=NCCN1CCNC(=O)Nc1ccc(F)cc1	4	i	-19	5	5	7	-11	-13
COC(=O)c1ccc(C(=O)OC)c(NC(=S)N2CCN(c3ccc(F)cc3)CC2)c1	-24	i	-13	0	2	-3	-5	-3
CN1C(=S)SC(N(O)C(=O)NC2CCCCC2)C1(C)C (stereo not drawn)	-20	i	-17	6	3	-8	-4	5
O=C(Nc1cccnc1)c1ccc(NS(=O)(=O)c2cc([N+](=O)[O-])ccc2Cl)cc1	-2	·	-5	2	4	13	22	-11
CC(C)(c1ccccc1)c1ccc(OCCCNCCO)cc1	-2	·	-12	-8	-11	2	10	5
COCCSc1ccccc1C(=O)Nc1ccccc1C(C)C	11	i	·	1	3	-7	-6	·
Cc1c(C(=O)N2CCC(Cc3ccccc3)CC2)cccc1[N+](=O)[O-]	14	i	·	1	-10	5	1	-1
COc1ccc(CCNC(=O)CSCc2ccc([N+](=O)[O-])cc2)cc1OC	6	i	·	2	0	-13	-7	-4
C=CCn1c(Cc2cccs2)nnc1SCC(=O)c1cccc(Br)c1	4	i	-14	-5	1	-10	-5	53
CN(C)CCNc1nc2c(c(=O)[nH]c(=O)n2C)n1CCCc1ccccc1	-19	i	5	3	5	-4	0	-2
CCC1NC(=O)c2cccnc2-n2c1nc1ccc(OC)cc1c2=O (stereo not drawn)	10	·	13	1	1	·	·	·
NS(=O)(=O)c1ccc(CCNC(=O)CSc2ccccc2)cc1	·	i	-9	6	6	8	6	5
CC(=O)Cc1cc2cc([N+](=O)[O-])ccc2oc1=O	-14	i	-17	1	1	7	6	-3
CC(C)CC(=O)N1CCN(C(=O)CCC2CCCC2)CC1	·	i	-15	0	-2	0	3	-12
CCC(C)C(NC(=O)OC(C)(C)C)C(=O)NC(Cc1ccccc1)C(=O)OC (stereo not drawn)	·	i	-7	7	4	-10	3	8
CC1(C)CCCN(C(=O)c2coc(=O)c(Br)c2)C1	·	+	8	-6	2	57*	89*	·	eIF4H inh retest=100*;PABP FP inh retest=94*
CCn1c(Cc2cccs2)nnc1SCC(=O)Nc1ccc(OC)c(OC)c1	11	i	-11	5	1	4	-6	-6
C=CCNc1cnn(-c2ccccc2)c(=O)c1Cl	-21	·	·	5	8	-5	-2	-7
CC1CN(S(=O)(=O)c2cccc(C(=O)OCC(=O)Nc3ccc4c(c3)OCO4)c2)CC(C)O1 (stereo not drawn)	-24	·	-20	-7	-7	-1	6	11
COc1ccccc1NS(=O)(=O)c1cc(NC(=O)c2ccncc2)ccc1N1CCCC1	-39	i	·	3	-4	8	24	-8
COc1ccc(CCNC(=O)Nc2nc(CN)cs2)cc1OC	-10	·	-7	-1	0	·	·	·
COc1ccc(CCNC(=O)c2nnn(CC(=O)Nc3ccccc3)c2N)cc1OC	·	i	-12	-6	-4	2	0	-13
COc1ccccc1NC(=O)CN1CCN(CC(=O)Nc2cc(C)ccc2OC)CC1	23	i	-10	-1	-10	0	-1	·
O=C(NCc1cccnc1)c1cc(C2CCCCN2C(=O)CCc2ccccc2)on1 (stereo not drawn)	10	·	-13	2	-4	·	·	·
COc1ccc(-c2cn3cccnc3n2)cc1F	9	?	·	8	7	4	3	-16
COc1ccc(C2(CN(C(C)=O)C(C)=O)CCCC2)cc1OC	·	i	·	4	0	7	-9	·
CCCCN1C2=C(C(=O)CCC2)C(c2ccc(Cl)c(Cl)c2)C2=C1c1ccccc1C2=O (stereo not drawn)	-116	i	-11	-22	-5	92*	90*	32
COc1cc2c(cc1OC)CN(C(=O)Nc1ccccc1)CC2	-39	i	-12	-1	-1	8	4	-3
CNC(=O)c1ccccc1NC(=O)C1CC(=O)N(C(C)C)C1 (stereo not drawn)	-1	i	-9	3	4	4	5	-13
Cc1c(N=Cc2cc(Br)cc(Br)c2O)cccc1C(=O)O	20	i	·	2	3	2	26	4
COc1cc(NC(=O)COc2ccccc2Cl)ccc1NC(=O)C(C)C	-8	i	-2	-4	-4	-2	-3	8
CC(C)N=C(Nc1cccnc1)c1ccccc1	3	i	-18	-3	1	-22	0	-2
CC1=C(C(=O)N2CCOCC2)CC(CC(=O)NCC2CCCCC2)C(=O)N1Cc1ccccc1 (stereo not drawn)	8	·	27	6	8	·	·	·
CN1CCCN(S(=O)(=O)c2cccc(Cl)c2Cl)CC1	19	i	-13	-4	2	-9	-6	-4
